Compound activity deposited in PubChem BioAssay by Southern Research Institute.
Mtb H37Rv: Confirmatory growth inhibition assay against Mycobacterium tuberculosis H37Rv, potency (AID 1949); most inactive calls were filed without a number and no value below 0 was filed; inhibition, % at 10 µg/mL, or IC50 in µg/mL where a hit was titrated; 100,000 tested, 1.6% active;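 active means confirmed in a dose series; inconclusive means about 50% or more but not retested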;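 further: bacteria grown 7 days with compound before Alamar blue readout; 0% = untreated bacteria and 100% = reference antibiotic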
Starred values were filed as active, the others as inactive; i = inactive; ? = inconclusive. Only part of the results is shown; count on the stated rates, not on these rows.

SMILES	Mtb H37Rv
COc1ccc(NC(=O)CSC2CC(=O)N(c3ccc(F)cc3)C2=O)cc1 (stereo unspecified)	i
COc1ccc(-c2nc3ccccc3o2)cc1NC(=S)NC(=O)Cc1ccccc1	i
Cc1ccc(-c2nnc(SCC(=O)Nc3ccccc3N3CCOCC3)o2)cc1	43%
CCN(C1CCCCC1)S(=O)(=O)c1ccc(C)c(C)c1C	i
CCC(=O)NC(=S)Nc1ccc(NC(=S)NC(=O)c2ccc(OC)cc2)cc1	i
CCc1cccc(C)c1NC(=O)COc1ccc(N2CC(C(=O)NCc3ccc(C)cc3)CC2=O)cc1 (stereo unspecified)	i
Cc1ccc([N+](=O)[O-])cc1NC(=O)c1cccnc1	i
Cc1cccc(OCC(=O)N2CCC(N3CCN(C)CC3)CC2)c1	i
Cn1cnnc1Sc1nc2c(c(=O)n(C)c(=O)n2C)n1C	i
COc1ccc(NC(=O)c2cc(C)cc(C)c2)cc1	i
O=c1cc(O)c2sc3nc(-c4ccccc4)cc(C(F)(F)F)c3c2[nH]1	6%
Nc1csc(C(c2ccccc2)c2ccccc2)n1	4%
Cc1cc(OCC(=O)Nc2ccc3oc(=O)ccc3c2)ccc1Cl	i
COc1ccc2nc(NC(=O)CN3CCCCC3)sc2c1	3%
O=S(=O)(NCc1ccccc1)c1cccc2nonc12	1%
CCOC(=O)C1=C(C)Nc2[nH]c(=O)[nH]c(=O)c2C1c1cc(OC)c(OC)c(OC)c1 (stereo unspecified)	i
CC1(C)Cc2nc3sc4c(SCC(=O)c5ccccc5)ncnc4c3cc2CO1	i
COc1ccc(Br)cc1C(=O)NC(=S)Nc1sc2c(c1C(N)=O)CCCC2	i
CCOc1ccccc1NC(=O)CSC(C)c1nc2ccccc2c(=O)[nH]1 (stereo unspecified)	12%
O=C(Nc1ccccc1)c1cc([N+](=O)[O-])ccc1N1CCCCCC1	i
Cc1sc2nc(SCc3nc4ccccc4[nH]3)n(Cc3ccco3)c(=O)c2c1C	i
CC(=O)Nc1ccc(C)cc1C(=O)c1ccccc1	i
COc1ccccc1C1CC(=O)C2=C(C1)NC(C)=C(C(=O)OCC1CCCO1)C2c1cc(OC)c(OC)c(OC)c1 (stereo unspecified)	i
COc1cc(NC(=S)N2CCN(C)CC2)c(OC)cc1Cl	i
Cc1ccc(S(=O)(=O)N(CC(=O)N2CCOCC2)Cc2ccc(F)cc2)cc1	i

Other records follow:
SMILES	Mtb H37Rv
CCOc1ccc(-n2nc3cc(C)c(NC(=O)c4cc(Br)ccc4Cl)cc3n2)cc1	1%
CCCCn1c(-c2ccccc2)n[nH]c1=S	i
Clc1ccc2[nH]c3c(c2c1)CCCC3NCCOc1ccccc1 (stereo unspecified)	31%
COC(=O)c1ccc(OC(=O)COc2cc(C)c(Cl)c(C)c2)cc1	i
COc1cc(C(C)(C)C)cc(Br)c1O	i
CN1CCN(C(=O)CN(c2ccc(Cl)c(C(F)(F)F)c2)S(C)(=O)=O)CC1	2%
COC(=O)Nc1ccc(S(=O)(=O)Nc2cc(C(C)C)c(O)c(C(C)C)c2)cc1	0%
Cc1ccccc1NC(=O)CSc1nc(C)c2c(n1)CCCC2	i
COC(=O)COc1ccc2c(C)c(CC(=O)OC)c(=O)oc2c1C	?
COC(=O)C12C(=O)Oc3ccc4ccccc4c3C1C2(C)C(=O)c1ccc(Br)cc1 (stereo unspecified)	i
CCOCCCNCC#Cc1ccccc1	i
O=C(NCc1ccc(F)cc1)c1ccccc1C(=O)NCc1ccc(F)cc1	7%
Cn1nc(-c2ccc(OCC(=O)Nc3ccc(F)cc3)cc2)c2ccccc2c1=O	i
COc1ccc(S(=O)(=O)Nc2ccccc2C(=O)O)cc1Br	i
CC(C)CC(=O)Nc1ccc(Cl)c(-c2nc3ccccc3s2)c1	i
Cc1occc1C(=O)NCCCN1CCCC1=O	4%
CCn1c(SCC(=O)NCCc2ccccc2)nnc1-c1ccccc1C	2%
Cc1ccc(C(=O)N2CCN(c3ccccc3F)CC2)c(C)c1	i
CCc1cccc(C)c1NC(=O)c1ccccc1N(Cc1ccccc1)S(C)(=O)=O	i
O=C(Nn1c(=S)[nH]c2ccccc2c1=O)c1ccncc1	i
COc1ccc(N2C(=O)CC(N(CCc3ccc(OC)c(OC)c3)C(C)=O)C2=O)cc1 (stereo unspecified)	i
O=c1c2ccccc2nc(SCc2ccc(Cl)cc2)n1-c1ccc(Cl)cc1	i
NS(=O)(=O)c1ccc(NC(=O)CN2CCN(c3cccc(C(F)(F)F)c3)CC2)cc1	i
CCc1ccc(CCC(=O)Nc2ccc(S(N)(=O)=O)cc2)o1	i
Nc1nncn1C(=O)CCc1ccccc1	i

Further results follow:
SMILES	Mtb H37Rv
O=C(CNC(=O)c1ccccc1)Nc1cccc(C(F)(F)F)c1	i
CN1CCN(NC(=O)NC23CC4CC(CC(C4)C2)C3)CC1	1%
O=C(COc1cc2oc(=O)c3c(c2cc1Cl)CCC3)c1ccc(Cl)cc1	1%
COc1ccc([N+](=O)[O-])cc1NC(=O)c1cc(-c2ccccc2Cl)nc2ccccc12	i
COCCNCCOCCOc1ccc(C)cc1[N+](=O)[O-]	i
Cc1cc(N)ccc1-c1ccc(CO)o1	i
CCOC(=O)Cc1csc(NC(=O)c2c(-c3c(Cl)cccc3Cl)noc2C)n1	4%
CCOC(=O)c1c(NC(=O)C23CC4CC(CC(C4)C2)C3)sc(C(=O)Nc2ccc(OC)cc2OC)c1C	4%
COc1ccccc1NC(=S)NCC1CCCO1 (stereo unspecified)	i
Clc1ccc(OCCN2CCNCC2)c(Cl)c1	i
CC(C)(C)c1ccc(C(=O)N2CCc3ccccc32)cc1Br	8%
CSc1cccc(NS(=O)(=O)c2cccs2)c1	5%
CCC(CC)c1nnc(NC(=O)c2ccc(SC)cc2OC)s1	47%
CCC(C)c1ccccc1OCC(=O)Nc1ccc(C(=O)OC)cc1 (stereo unspecified)	31%
O=C(Nc1ccccc1)c1ccc(NCc2ccccc2)c([N+](=O)[O-])c1	i
CS(=O)(=O)N(CC(=O)Nc1ccc(C(N)=O)cc1)c1cccc(C(F)(F)F)c1	i
CCn1c(SCc2ccc(OC)cc2)nnc1-c1ccncc1	i
CCOc1ccc(N2C(=O)CC(N3CCC(C(=O)OC)CC3)C2=O)cc1 (stereo unspecified)	i
CS(=O)(=O)N(CC(=O)NC1CC2CCC1C2)c1ccccc1Cl (stereo unspecified)	i
COc1ccc(C(C)NC(=O)C23CC4CC(CC(C4)C2)C3)cc1 (stereo unspecified)	i
COc1cc(/C=C(/C#N)c2ccc(I)cc2)cc(Cl)c1O	i
O=C(CSCc1cccc(Cl)c1)Nc1cccc(F)c1	7%
COc1ccc(OC)c(NC(=O)c2ccc(Cl)c(S(=O)(=O)Nc3ccc(C)cc3)c2)c1	i
CCOC(=O)C1CCN(C(=O)Nc2ccc3c(c2)nnn3C)CC1	i
COc1ccc(C(C)(C)C)cc1S(=O)(=O)NCc1ccccc1	i

Additional compounds.
SMILES	Mtb H37Rv
O=C(Nc1nnc(C(F)(F)F)s1)C1CCCO1 (stereo unspecified)	2%
Cc1ccc(-n2cnnn2)c(S(=O)(=O)N2CCOCC2)c1	1%
COC(=O)CSc1nnc(-c2ccccn2)n1Cc1ccco1	31%
CCCNc1ncnc2ccc(Br)cc12	2%
O=C(NCC1CCCO1)C(=O)NC1CC1 (stereo unspecified)	i
CC(C(=O)Nc1ccccc1-c1nc2ccccc2s1)(c1ccccc1)c1ccccc1	6%
COc1ccc(OC)c(NC(=S)NCCCc2ccccc2)c1	i
COc1ccc(CCNC(=O)CC2Sc3ccc(C(F)(F)F)cc3NC2=O)cc1OC (stereo unspecified)	10%
COC(=O)c1ccccc1NC(=O)CN(c1cccc(Cl)c1)S(=O)(=O)c1ccc(OC)cc1	i
O=C(CN(c1ccccc1)S(=O)(=O)c1ccc(F)cc1)NC1CCCC1	i
COc1ccc2c(c1)c(=O)oc1cc(OC3CCCCC3=O)ccc12 (stereo unspecified)	7%
O=C(Nc1nnc(C(F)(F)F)s1)c1ccccc1Oc1ccccc1	i
CCC1(C)CC(CC(=O)O)(c2ccc(C)cc2)CCO1 (stereo unspecified)	i
CCCn1c2ccccc2c2nc3ccccc3nc21	i
Cc1ccc2nsnc2c1S(=O)(=O)N1CCN(Cc2ccc3c(c2)OCO3)CC1	i
Cn1c(SC/C=C/c2ccccc2)nnc1-c1sc2ccccc2c1Cl	3%
CN(CCCNC(=O)Cc1ccc(-c2ccccc2)cc1)Cc1ccccc1	i
CCc1ccc2oc(C(=O)Nc3ccccc3OC)c(C)c2c1	?
CCOC(=O)c1c(NCc2cc(OC)ccc2O)sc2c1CCCC2	i
COc1c(S(=O)(=O)N2CCN(c3cc(Cl)ccc3Cl)CC2)ccc(Cl)c1Cl	0%
COc1cc(C=O)cc(Br)c1OC1CCCC1	i
c1ccc(-c2noc(CC3CCCCC3)n2)cc1	i
N#Cc1cc(Sc2ccccc2)c(N2CCOCC2)cc1C#N	i
CCN(CC)C(=O)CSc1nnc(COc2ccccc2)n1N	i
COc1ccc(CC(=O)NCCCc2ccccc2)cc1OC	46%

The closing two compounds of the part before lead into the next:
SMILES	Mtb H37Rv
CCN(CC)C(=O)CSc1nnc(COc2ccccc2)n1N	i
COc1ccc(CC(=O)NCCCc2ccccc2)cc1OC	46%
Cc1ccc(S(=O)(=O)N2CCC(C(N)=O)CC2)c(C)c1C	i
COc1ccc(Cl)cc1S(=O)(=O)NC(C)c1ccccc1 (stereo unspecified)	i
CCOC(=O)c1c(NC(=O)c2sc3cc(OC)ccc3c2Cl)sc(C)c1C	i
C=Cc1cccc(NC(=O)COc2ccccc2)c1	?
O=C(CCC(=O)c1ccc(Oc2ccccc2)cc1)Nc1ccccc1F	i
Cc1ccc2cccc(S(=O)(=O)N3CCN(c4ccccc4F)CC3)c2n1	2%
Nn1c(SCC(=O)Nc2cccc(Br)c2)nnc1-c1ccccc1	i
COc1ccc(Br)cc1C(=O)N1CCN(c2ccc(C(F)(F)F)cc2[N+](=O)[O-])CC1	10%
CN1CCN(CCOc2ccc(Cl)c(Cl)c2)CC1	3%
O=C(Oc1cccc(NC(=O)c2ccccc2Cl)c1)c1ccc(Br)cc1	8%
O=c1cc(NCCCO)c2ccccc2o1	1%
O=S(=O)(c1ccc(Cl)cc1)N1CCN(S(=O)(=O)N2CCCCC2)CC1	i
O=C(NCc1ccccc1Cl)c1cccc(NC(=O)c2ccccc2)c1	5%
COc1ccc(F)cc1S(=O)(=O)Nc1ccc2c(c1)OCO2	i
O=C(NCc1ccc(Cl)cc1Cl)C1CCN(C(=O)c2ccc([N+](=O)[O-])cc2)CC1	i
COc1ccc(Br)cc1C(=O)Nc1ccc(CN2CCCCC2)cc1	4%
O=C(NCc1ccco1)c1ccc(NC(=O)c2ccco2)cc1	i
O=c1c2ccccc2nc(/C=C/c2c[nH]c3ccccc23)n1Cc1ccccc1	i
CC(C)(CO)NC(=O)c1ccccc1F	i
O=C(Nc1ccc(Cl)cc1)c1cccc(Oc2ccccc2)c1	i
C=CCn1c(SCC(=O)NCc2ccco2)nc2scc(-c3ccco3)c2c1=O	i
Cc1nnc(SCC(=O)Nc2ccc(Br)cc2Cl)s1	i
CCOC(=O)Nc1nc(C)c(C(=O)OCC)s1	i
COc1ccccc1NC(=O)COc1cccc(C=O)c1	5%
Nc1cccc(C(=O)CC2(O)C(=O)N(CCc3ccccc3)c3ccc(Cl)cc32)c1 (stereo unspecified)	i

The listing continues.
SMILES	Mtb H37Rv
Cc1sc2nc(SCC(=O)N(C)C)[nH]c(=O)c2c1C	i
O=C(COc1ccc(Br)cc1Cl)Nc1nccs1	7%
FC(F)(F)c1cccc(NC(=S)N2CCN(c3cccc(Cl)c3)CC2)c1	2%
CCC(C(=O)O)n1cnc2sc(C)c(C)c2c1=O (stereo unspecified)	i
COc1cc(NS(=O)(=O)c2ccccc2)ccc1-n1nc(C)cc1C	i
CCn1c(SCC(=O)c2ccc(C)cc2)nnc1-c1ccncc1	i
C=C1CS(=O)C2C(NC(=O)COc3ccccc3)C(=O)N2C1C(=O)OCc1ccc([N+](=O)[O-])cc1 (stereo unspecified)	i
Ic1ccc(OCCCN2CCCCCC2)cc1	i
S=C(Nc1ccc2c(c1)OCCO2)NC1CCCCC1	i
O=[N+]([O-])c1ccc(Oc2ccc3ccccc3c2)cc1	i
O=C1C(=O)N(CCCOc2ccc(Cl)cc2Cl)c2ccccc21	i
CCOc1ccccc1NC(=S)NCc1ccccc1OC	i
COC(=O)C12C(=O)Oc3ccc([N+](=O)[O-])cc3C1C2(C)C(=O)c1ccccc1 (stereo unspecified)	i
CCOC(=O)c1sc2ncn(Cc3ccc(Cl)cc3Cl)c(=O)c2c1C	i
CCN(c1ccccc1)S(=O)(=O)c1ccc(NC(=S)Nc2ccccc2)cc1	i

Molecules shown so far with an aryl thioether with sulfur outside any ring:
SMILES	Mtb H37Rv
Cc1ccc(-c2nnc(SCC(=O)Nc3ccccc3N3CCOCC3)o2)cc1	43%
Cn1cnnc1Sc1nc2c(c(=O)n(C)c(=O)n2C)n1C	i
CC1(C)Cc2nc3sc4c(SCC(=O)c5ccccc5)ncnc4c3cc2CO1	i
Cc1sc2nc(SCc3nc4ccccc4[nH]3)n(Cc3ccco3)c(=O)c2c1C	i
Cc1ccccc1NC(=O)CSc1nc(C)c2c(n1)CCCC2	i
CCn1c(SCC(=O)NCCc2ccccc2)nnc1-c1ccccc1C	2%
O=c1c2ccccc2nc(SCc2ccc(Cl)cc2)n1-c1ccc(Cl)cc1	i
CSc1cccc(NS(=O)(=O)c2cccs2)c1	5%
CCC(CC)c1nnc(NC(=O)c2ccc(SC)cc2OC)s1	47%
CCn1c(SCc2ccc(OC)cc2)nnc1-c1ccncc1	i
COC(=O)CSc1nnc(-c2ccccn2)n1Cc1ccco1	31%
Cn1c(SC/C=C/c2ccccc2)nnc1-c1sc2ccccc2c1Cl	3%
N#Cc1cc(Sc2ccccc2)c(N2CCOCC2)cc1C#N	i
CCN(CC)C(=O)CSc1nnc(COc2ccccc2)n1N	i
Nn1c(SCC(=O)Nc2cccc(Br)c2)nnc1-c1ccccc1	i
C=CCn1c(SCC(=O)NCc2ccco2)nc2scc(-c3ccco3)c2c1=O	i
Cc1nnc(SCC(=O)Nc2ccc(Br)cc2Cl)s1	i
Cc1sc2nc(SCC(=O)N(C)C)[nH]c(=O)c2c1C	i
CCn1c(SCC(=O)c2ccc(C)cc2)nnc1-c1ccncc1	i
